High-throughput results (PubChem BioAssay)
Cruzain noTriton = qHTS Assay for Promiscuous and Specific Inhibitors of Cruzain (without detergent); Cruzipain (Trypanosoma cruzi), P25779; 2.3% of 200,000 active; Potency, µM, for inactives: max response, negative = inhibition, actives largely listed as inhibitors; purified cruzain, Z-FR-AMC fluorescence, no detergent; active = well fitted curve in the direction sought with a large enough effect; inconclusive = small, poorly fitted or top-dose-only effect, or another doubt; inactive = no such curve, though single readings can be large; an effect the other way counts as inactive or inconclusive;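 also: plate controls were enzyme without inhibitor for no effect and buffer without enzyme for full effect; nearly all actives have a fitted effect of over 40% in size; top concentration of the series not given in the record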
Target sequence (P25779 123-467 limits assumed): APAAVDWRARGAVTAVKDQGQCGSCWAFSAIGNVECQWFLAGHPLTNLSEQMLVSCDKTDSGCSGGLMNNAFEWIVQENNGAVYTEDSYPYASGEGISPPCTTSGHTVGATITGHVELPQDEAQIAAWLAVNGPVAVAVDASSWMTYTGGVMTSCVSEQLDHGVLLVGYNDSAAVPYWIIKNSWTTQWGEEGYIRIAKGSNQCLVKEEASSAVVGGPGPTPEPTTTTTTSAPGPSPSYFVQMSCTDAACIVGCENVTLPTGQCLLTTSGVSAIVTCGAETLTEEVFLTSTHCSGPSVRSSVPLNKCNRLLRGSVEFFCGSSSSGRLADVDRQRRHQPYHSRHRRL
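Purified cruzain at 1.5 nM, pre-incubated 15 min with compound at room temperature in 100 mM sodium acetate pH 5.5, 5 mM DTT, 0.00005% Triton X-100. Reaction started with 2 uM Z-FR-AMC; AMC fluorescence increase over 60 s gives rate.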
NS1 inh = qHTS Assay for Inhibitors of Influenza NS1 Protein Function; 0.4% of 270,000 active; AID 2326, 2010; Potency, µM (top dose mostly 46.1 µM), without a hit: at the highest dose activity, positive = more growth; S. cerevisiae slowed by influenza A NS1, growth recovery by OD600; also: actives are rising curves; nearly all actives have a fitted effect of over 50% in size
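Growth recovery, yeast-based: influenza A NS1 expressed in S. cerevisiae causes slow growth, and suppressors are detected by OD600. The parent strain without NS1 is used as positive control.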
SARS PLpro yeast = qHTS of Yeast-based Assay for SARS-CoV PLP | S. cerevisiae expressing SARS-CoV PLpro, growth rescue; control for the full effect not named in the record | 0.19% of 330,000 active | AID 485353, 2010 | Potency, µM (series often up to 32.9 µM), for inactives: top-dose activity, positive = growth rescue; also: 0% is about no effect; nearly all actives have a fitted effect of over 55% in size; growth read by luminescence after 48 h
Cruzain inh Det = qHTS Assay for Promiscuous and Specific Inhibitors of Cruzain (with detergent) | purified cruzain, Z-FR-AMC fluorescence, 0.01% Triton | Potency, µM, without a hit: max response, negative = inhibition, actives largely listed as inhibitors | 0.43% of 200,000 active | AID 1478, 2009; active = well fitted curve in the direction sought with a large enough effect; inconclusive = small, poorly fitted or top-dose-only effect, or another doubt; inactive = no such curve, though single readings can be large; an effect the other way counts as inactive or inconclusive;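 also: plate controls were neutral wells for no effect and buffer without enzyme for full effect; nearly all actives have a fitted effect of over 40% in size; top concentration of the series not given in the record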
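15 min RT preincubation of 1.5 nM cruzain with compound, then 2 uM Z-FR-AMC added; kinetic AMC fluorescence, 60 s delta. Triton X-100 0.01%, pH 5.5.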
Lassa entry inh = qHTS for Inhibitors of binding or entry into cells for Lassa Virus | 1.2% of 300,000 active | Lassa virus pseudotype entry inhibition, cell reporter; control for the full effect not named in the record | AID 540256, 2011 | Potency, µM (top dose mostly 37.9 µM), without a hit: at the top dose activity change, negative = inhibition, most hits filed as inhibitors; active means well fitted inhibition curve with a large enough effect; inconclusive means small, poorly fitted or top-dose-only effect, or effect the other way; inactive means flat fitted curve, though single readings scatter; tested in HEK293 cells; also: % is scaled to controls: 0 for no effect and ±100 for the full control effect; nearly all actives have a fitted effect of over 50% in size; luciferase read-out
2A StopGo = High Throughput Screening for Foot and Mouth Disease Virus Antivirals; Potency, µM (series often up to 57.9 µM), without a hit: at the top dose signal change, negative = less light; 1.2% of 410,000 active; human cells with a luciferase reporter of 2A StopGo recoding; control for the full effect not named in the record; active = well fitted falling curve with a large enough effect; inconclusive = small, poorly fitted or top-dose-only effect; inactive = no such curve, though single readings can be large or run the other way; tested in HEK293T cells; also: % is scaled to controls: 0 for no effect and ±100 for the full control effect; nearly all actives have a fitted effect of over 45% in size; luciferase light after 4 h
RE007 growth inh = qHTS Assay for Inhibitors of the HIV-1 protein Vpr | S. pombe RE007 Vpr strain, BacTiter-Glo ATP luminescence, 24 h; control for the full effect not named in the record | Potency, µM (titrated, usually from 92.2 µM), for inactives: at the top dose activity change, negative = less growth | 0.21% of 360,000 active | AID 651644, 2012; active = well fitted falling curve with a large enough effect; inconclusive = small, poorly fitted or top-dose-only effect; inactive = no such curve, though single readings can be large or run the other way;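 also: % is scaled to controls: 0 for no effect and ±100 for the full control effect; nearly all actives have a fitted effect of over 50% in size; the assay follows cell death caused by Vpr and the record does not say whether a fall means rescue or toxicity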
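Fission yeast RE007 carrying one integrated HIV-1 vpr copy, seeded at OD 0.01 in PMG+AL medium with 23 nL pinned compound. Grown 24 h at 30 degrees; viability read by BacTiter-Glo luminescence after 5 min.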
MARV entry inh = qHTS for inhibitors of binding or entry into cells for Marburg Virus; Marburg virus pseudotyped entry inhibition, cell reporter; control for the full effect not named in the record; about a third of the inactives were read at about 46 µM; Potency, µM (series often up to 37.8 µM), inactives show at the top dose activity change, negative = inhibition, most hits filed as inhibitors; 1.8% of 300,000 active; AID 540276, 2011; active = well fitted inhibition curve with a large enough effect; inconclusive = small, poorly fitted or top-dose-only effect, or effect the other way; inactive = flat fitted curve, though single readings scatter; tested in HEK293 cells; about a fifth of its hits are not listed in these tables; also: % is scaled to controls: 0 for no effect and ±100 for the full control effect; luciferase read-out
* = called active by the depositor; ? = inconclusive; / = not tested or not shown; [ ] = another dose, or the depositor's remark. Unless noted, calls follow the shape of the dose curve; as a rule, active means well fitted rising curve with a large enough effect; inconclusive means small, poorly fitted or top-dose-only effect; inactive means no such curve, though single readings can be large or run the other way. Potency is read from the fitted curve at half-maximal effect. Random draw from the library; about 4.7% have a hit in one of these screens.

mol	Cruzain noTriton	NS1 inh	SARS PLpro yeast	Cruzain inh Det	Lassa entry inh	2A StopGo	RE007 growth inh	MARV entry inh
CCCCn1c(N)c(N(Cc2ccccc2OC)C(=O)CCSC)c(=O)[nH]c1=O	/	14%	2%	/	9%	-11%	-18%	9%
Cn1ccnc1C(O)(c1nnc(-c2ccccc2)o1)C(F)(F)F (stereo not given)	2%	-1%	5%	4.9%	16%	-16%	-10%	2%
Cc1cc(C)n2nc(C(=O)Nc3cccc(S(=O)(=O)N4CCOCC4)c3)nc2n1	/	/	-2%	/	-8%	-6%	-17%	?
CCCc1cc(=O)[nH]c(SCCOc2ccc(Cl)cc2)n1	-2%	-18%	-9%	-8.1%	23%	?	10%	11%
O=C(Nc1ccccc1)N1CCSc2cc(Cl)ccc21	-4%	-1%	-4%	-3.5%	13%	23%	-4%	?
O=C(NC(=O)c1ccccc1)Nc1ccc(Cl)cn1	/	2%	1%	/	/	25%	-13%	/
COC(=O)c1ccc(C)c(NC(=S)NCc2ccc(Cl)cc2)c1	-4%	0%	9%	-3.6%	8%	50%[activator]	-7%	-7%
CCCCN(C)C(=O)c1cccc(OC2CCN(CC(C)(C)C)CC2)c1	/	24%	5%	/	/	-13%	3%	/
CC(CN1CCCCC1)c1ccccc1 (stereo not given)	/	2%	-3%	/	6%	-12%	-3%	13%
CC1CCN(C(=O)CNC(=O)CNS(=O)(=O)c2ccccc2)CC1	/	8%	3%	/	/	8%	0%	/
CCc1ccc(NC(=O)N2CCN(c3ccc(F)cc3)CC2)cc1	/	11%	-1%	/	/	-5%	13%	/
COc1cccc(CC(=O)Nc2ncc(C)s2)c1	/	5%	1%	/	-18%	19%	17%	?
COc1cccc(NC(=O)CN(C)S(=O)(=O)c2ccc3c(c2)n(C)c(=O)c(=O)n3C)c1	/	-2%	20%	/	-29%[46.1 µM]	14%	13%	-4%[46.1 µM]
COc1cc(CO)cc(-c2cc(CO)cc(OC)c2OC)c1OC	5%	3%	3%	2.4%	19%	-4%	-9%	17%
O=C(CSc1nc2ccccc2c(=O)n1-c1ccc(F)cc1)NC1CCS(=O)(=O)C1 (stereo not given)	/	/	-1%	/	7%	-12%	-9%	?
CCOc1ccc(NC(=O)Cn2ccn3nc(-c4ccc(OC)c(OC)c4)cc3c2=O)cc1	-3%	/	/	1.5%	?	46%[activator]	/	/
CCCCC/C=C\C/C=C\C/C=C\C/C=C\CCCC(=O)Nc1ccc(O)cc1	2%	/	7%	0.6%	/	-13%	/	/
NC(=NCCc1c[nH]c2ccccc12)NC(=O)c1ccc(Cl)cc1	/	-6%	-2%	/	?	1%	-4%	?
COc1ccc(NC(=O)NCCc2ccc(Cl)cc2)cc1OC	/	2%	10%	/	7%	7%	-12%	0%
O=C(Cc1ccc(Br)cc1)OCC(=O)N1CCCCCC1	/	/	9%	/	9%	-1%	-14%	7%
CCC(=O)N1CCc2cc(S(=O)(=O)CCC(=O)Nc3ccc(Cl)c(C(F)(F)F)c3)ccc21	1%	/	/	-2.3%	-1%[46.1 µM]	0%	/	2%[46.1 µM]
O=C(CNCc1ccccc1)NCCCN1CCCC1=O	/	7%	0%	/	13%	6%	-10%	1%[46.1 µM]
CC(=O)NCc1ccc(S(=O)(=O)N/N=C/c2ccccc2)cc1	2%	5%	-21%	-1.3%	-7%	89%[activator]	-8%	-19%
CCOc1ccc(-c2csc(NC(=O)c3ccc(S(=O)(=O)N4CCc5ccccc5C4)cc3)n2)cc1	4µM*	1%	16%	-1.2%	6%	-22%	-6%	-3%
Cc1ccc(C)c(NS(=O)(=O)c2ccc(OCC(=O)NCc3ccccn3)cc2)c1	/	-7%	-2%	/	-28%[46.1 µM]	37%[activator]	-21%	?
O=C(NCCc1ccccc1Cl)c1ccc2c(=O)n(-c3ccccc3)c(=O)[nH]c2c1	?	/	/	2.8%	8%[46.1 µM]	?	/	-26%[46.1 µM]
COc1cc(CN2CCNCC2)cc(OC)c1OC	/	?	2%	/	23%[46.1 µM]	31%[activator]	-1%	1%[46.1 µM]
COc1cccc(C(=O)NCCCn2ccnc2)c1	/	8%	-1%	/	/	-13%	-5%	/
CC1(C)O[C@H]2[C@@H](O1)[C@@H](C(=O)Nc1ccccc1O)O[C@@H]1OC(C)(C)O[C@@H]12	15%	/	/	-0.3%	-3%[46.1 µM]	19%	/	-4%[46.1 µM]
CC(C)[C@@H](C(=O)N[C@@H](Cc1ccccc1)C(=O)O)N1C(=O)N2CCc3c([nH]c4ccccc34)[C@@]2(C)C1=O	/	?	9%	/	/	-19%	-3%	/
Cc1cc(C)n(CC(C)O)c(=O)c1C#N (stereo not given)	0%	15%	-1%	-5.2%	?	/	-3%	1%
c1nc(N2CCC3(CC2)OCCO3)c2[nH]cnc2n1	9%	8%	4%	-0.7%	2%	-13%	11%	2%
O=C(CCNS(=O)(=O)c1ccc2c(c1)CCN2C(=O)C1CC1)N1CCN(c2ccc(F)cc2)CC1	3%	/	/	0.0%	/	-28%	/	/
COc1ccc(Nc2nnc(Cc3ccccc3)c(=O)[nH]2)c(OC)c1	-3%	-6%	-7%	2.6%	6%	15%	1%	26%
CCc1ccc(-n2c(Cc3ccccc3)nnc2SCc2nc(-c3cccs3)no2)cc1	-9%	/	/	-3.3%	/	0%	/	?
COC(=O)CN1C(=O)NC2(CCCc3ccccc32)C1=O (stereo not given)	/	2%	1%	/	/	-24%	3%	/
Cc1cc(C)c(C)c(S(=O)(=O)N2CCC(C(=O)OCC(=O)NC3CCS(=O)(=O)C3)CC2)c1C (stereo not given)	/	/	1%	/	-2%	-23%	15%	-10%
O=S(=O)(Nc1ccc(-c2ccc3nncn3n2)cc1)c1ccccc1F	/	/	0%	/	12%	11%	-22%	-9%
COCCN1C(=O)N(c2ccc(OC)cc2)C(=O)C1CC(=O)Nc1cccc(F)c1 (stereo not given)	/	14%	-3%	/	/	4%	19%	/
COc1ccccc1NC(=S)NCc1cccs1	3%	12%	-7%	-1.1%	-1%	47%[activator]	1%	1%
O=c1nc2onnc2c(C=NO)[nH]1	/	/	/	/	0%	-11%	-3%	16%
COc1cc(/C=C2\SC(=S)N(C(Cc3ccccc3)C(=O)O)C2=O)ccc1O (stereo not given)	/	21%	0%	/	/	-7%	-2%	/
COc1ccc(-n2c(=O)c3c(c4cc(OC)ccc4n3C)n(CCC(C)C)c2=O)cc1	12%	/	/	-2.5%	29%[46.1 µM]	-16%	/	/
CCOC(=O)CCP(=O)(O)C(O)c1ccccc1 (stereo not given)	-11%	3%	3%	1.5%	12%	-4%	6%	34%
Cn1c(=O)c(C(=O)CN2CCCCCC2)c(N)n(Cc2ccccc2)c1=O	/	/	0%	/	5%	-7%	24%	?
CCOc1cccc(CC(=O)Nc2ccc3nc(N4CCCCC4)cc(C)c3c2)c1OCC	-4%	/	/	1.7%	/	-14%	/	/
CCCCNC(=O)COC(=O)c1cc(Br)ccc1Cl	-8%	-23%	-17%	-3.2%	-5%	-4%	-25%	3%
C=C(C)C(=O)N1CC2(CC(c3cccc(NC(=O)/C=C\C)c3)=NO2)C[C@H]1C(N)=O (stereo not given in full)	/	2%	-4%	/	/	-21%	-4%	/
O=C1CCCCC1Sc1nnc(Nc2ccccc2)s1 (stereo not given)	/	/	-4%	/	?	28%	1%	?
C/C(=N\NC(=O)c1c(Br)c(C)nn1C)c1cccc(NC(=O)c2ccccc2F)c1	-20%	-2%	-3%	6.0%	-4%	-4%	17%	-2%
CC(=O)Nc1cccc(NC(=O)CSc2nc(=O)n(CCCN3CCOCC3)c3c2CCC3)c1	/	/	2%	/	18%	-15%	2%	2%
Cc1ccc(NC2=C(Cl)C(=O)OC2OC(=O)c2ccccc2C)cc1 (stereo not given)	/	/	-26%	/	?	?	7%	?
CC(C(=O)c1c[nH]c2ccccc12)N1CCOCC1 (stereo not given)	/	-6%	-5%	/	/	-2%	7%	/
CCOC(=O)c1ccc(OCCOc2cccc(C)c2)cc1	/	5%	4%	/	/	2%	-20%	/
COc1ccc(-c2c(C)n([O-])c3c([n+]2=O)CCCCC3)cc1	-4%	16%	8%	-2.2%	-2%	-22%	2%	2%
O=C(N/N=C/c1sc(N2CCCCC2)nc1-c1cccs1)C1CC1	/	/	-2%	/	-26%	-12%	-10%	-33%
CCC/C=N/NC(=O)c1ccc(F)cc1	/	/	-1%	/	18%[46.1 µM]	-17%	-1%	23%[46.1 µM]
CCOC(=O)c1cnc(Nc2nc3ccccc3o2)nc1CN1CCN(C)CC1	-11%	0%	1%	-0.2%	?	6%	-6%	?
Cc1ccc(S(=O)(=O)Oc2ccccc2/C=N/Nc2ccc(C(=O)O)cc2)cc1	/	-1%	1%	/	/	-2%	-14%	/
O=C(CN1C(=O)C2CC=CCC2C1=O)OCCN1C(=O)c2ccccc2C1=O (stereo not given)	2%	3%	20%	1.2%	0%	18%	5%	7%
O=Cc1cnc(N2CCN(c3ccccc3)CC2)s1	/	1%	1%	/	2%[46.1 µM]	-2%	-8%	?
CCCCCCCN1C2=NCCCN2c2ccccc21	/	-13%	-3%	/	?	?	-21%	?
